TLR4-MyD88 inh – TLR4-MyD88 interaction inhibition; Cell-based TLR4-MyD88 binding inhibition assay; inhibition, % at 10 µM; 16,000 tested, 0.06% active; AID 811; in the data active = inhibition above about 45%
S1P1 ag – S1P1 (human) receptor agonism; activation, % at 4.5 µM; AID 1044; 16,000 tested, 1.5% active; S1P1 agonist cell-based reporter assay; P21453; in the data active = activation above about 80%
Nox1 inh – inhibitors of human NADPH oxidase 1 (Nox1); HT29 cells, luminol chemiluminescence ROS; Q9Y5S8; 16,000 tested, 0.81% active; AID 1792; inhibition, % at 6.7 µM; in the data active = inhibition above about 75%
Target sequence (Q9Y5S8 whole entry, looked up): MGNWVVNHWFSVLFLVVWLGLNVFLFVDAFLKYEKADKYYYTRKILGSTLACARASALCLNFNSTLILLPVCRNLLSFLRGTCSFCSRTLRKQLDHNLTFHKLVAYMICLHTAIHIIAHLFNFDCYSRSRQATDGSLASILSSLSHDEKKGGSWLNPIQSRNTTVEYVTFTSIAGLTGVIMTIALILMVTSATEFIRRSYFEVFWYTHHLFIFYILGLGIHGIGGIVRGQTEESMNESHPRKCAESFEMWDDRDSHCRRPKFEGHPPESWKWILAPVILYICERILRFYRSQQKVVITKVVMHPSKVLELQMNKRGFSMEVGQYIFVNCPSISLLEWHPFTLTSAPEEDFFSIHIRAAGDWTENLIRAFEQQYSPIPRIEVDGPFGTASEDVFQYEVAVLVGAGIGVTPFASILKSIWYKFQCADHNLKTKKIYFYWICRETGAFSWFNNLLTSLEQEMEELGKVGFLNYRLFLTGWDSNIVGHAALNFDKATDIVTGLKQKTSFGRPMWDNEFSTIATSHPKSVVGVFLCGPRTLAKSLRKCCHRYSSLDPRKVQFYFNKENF
rat GALR2 agon – activates the rat galanin receptor 2 | O08726 | 16,000 tested, 0.5% active | cell-based GALR2 agonist screen | AID 833 | activation, % at 10 µM; in the data active = activation above about 15%
Starred values were filed as active, the others as inactive; / = not tested or not shown.

SMILES	TLR4-MyD88 inh	S1P1 ag	Nox1 inh	rat GALR2 agon
CC1=C(C(=O)O)N2C(=O)[C@H](NC(=O)[C@@H](N)c3ccccc3)C2SC1 (some centres not stated)	/	8.5	-8.7	22.8*
C=CCSc1n[nH]c(-c2cccs2)n1	-40.9	-1.3	-30.9	-2.2
CCOC(=O)c1ccc(Nc2c(OCC)c(=O)c2=O)cc1	-8.0	-1.2	3.4	-2.2
CCOC(=O)c1nc(C)sc1-c1ccnn1S(=O)(=O)c1ccccc1C(F)(F)F	-6.0	-10.9	-15.8	-9.9
CC(N)C12CC3CC(CC(C3)C1)C2 (configuration not stated)	-3.1	-7.9	-12.4	-4.5
CC(C)(C)C1=CC(O)(c2ccccc2)C=C(C(C)(C)C)C1=O	-1.2	-7.6	-58.6	-10.2
Cc1ccc(S(=O)(=O)NC(=O)NN2CCCCCC2)cc1	-1.4	-6.8	-15.0	-6.3
O=C(O)CCc1nc(-c2ccccc2)c(-c2ccccc2)o1	2.4	-1.8	-10.4	-2.5
COc1ccc(CSc2ccc([N+](=O)[O-])c3nonc23)cc1	-26.6	18.6	12.4	-10.3
Nc1ccn([C@@H]2O[C@H](CO)[C@@H](O)C2O)c(=O)n1 (some centres not stated)	-7.7	-7.8	6.3	-4.6

A draw from above in order of SMILES length, low to high:
SMILES	TLR4-MyD88 inh	S1P1 ag	Nox1 inh	rat GALR2 agon
CCOC(=O)c1ccc(Nc2c(OCC)c(=O)c2=O)cc1	-8.0	-1.2	3.4	-2.2
O=C(O)CCc1nc(-c2ccccc2)c(-c2ccccc2)o1	2.4	-1.8	-10.4	-2.5
COc1ccc(CSc2ccc([N+](=O)[O-])c3nonc23)cc1	-26.6	18.6	12.4	-10.3
Nc1ccn([C@@H]2O[C@H](CO)[C@@H](O)C2O)c(=O)n1 (some centres not stated)	-7.7	-7.8	6.3	-4.6
CC1=C(C(=O)O)N2C(=O)[C@H](NC(=O)[C@@H](N)c3ccccc3)C2SC1 (some centres not stated)	/	8.5	-8.7	22.8*

Screening data as filed in PubChem BioAssay.

Not all compounds are listed; the hit share may differ from the screen's.
